RE007 growth inh: less growth of the S. pombe RE007 Vpr strain. AID 651644. Potency, µM (doses to about 92.2 µM), for inactives: at the top dose activity change, negative = less growth. actives 0.21% (n = 360,000). S. pombe RE007 Vpr strain, BacTiter-Glo ATP luminescence, 24 h; control for the full effect not named in the record; active = well fitted falling curve with a large enough effect; inconclusive = small, poorly fitted or top-dose-only effect; inactive = no such curve, though single readings can be large or run the other way;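 further: on the % scale 0 is the no-effect control and ±100 the full control effect; nearly all actives have a fitted effect of over 50% in size; the assay follows cell death caused by Vpr and the record does not say whether a fall means rescue or toxicity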
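Fission yeast RE007 carrying one integrated HIV-1 vpr copy, seeded at OD 0.01 in PMG+AL medium with 23 nL pinned compound. Grown 24 h at 30 degrees; viability read by BacTiter-Glo luminescence after 5 min.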
SARS PLP yeast: inhibitors of SARS-CoV papain-like protease in yeast. Potency, µM (doses to about 32.9 µM), for the others: top-dose activity, positive = growth rescue. actives 0.19% (n = 330,000). S. cerevisiae expressing SARS-CoV PLpro, growth rescue; control for the full effect not named in the record; active means well fitted rising curve with a large enough effect; inconclusive means small, poorly fitted or top-dose-only effect; inactive means no such curve, though single readings can be large or run the other way; further: 0% is about no effect; nearly all actives have a fitted effect of over 55% in size; growth read by luminescence after 48 h
Lassa entry inh: Lassa virus entry inhibition. Lassa virus pseudotype entry inhibition, cell reporter; control for the full effect not named in the record. Potency, µM (titrated, usually from 37.9 µM), for inactives: at the highest dose activity change, negative = inhibition, actives largely listed as inhibitors. actives 1.2% (n = 300,000); active means well fitted inhibition curve with a large enough effect; inconclusive means small, poorly fitted or top-dose-only effect, or effect the other way; inactive means flat fitted curve, though single readings scatter; tested in HEK293 cells; further: on the % scale 0 is the no-effect control and ±100 the full control effect; nearly all actives have a fitted effect of over 50% in size; luciferase read-out
MARV entry inh: inhibitors of Marburg virus binding or cell entry. Marburg virus pseudotyped entry inhibition, cell reporter; control for the full effect not named in the record; about a third of the inactives were read at about 46 µM. Potency, µM (doses to about 37.8 µM), for the others: at the top dose activity change, negative = inhibition, usual class: inhibitors. actives 1.8% (n = 300,000). AID 540276; active = well fitted inhibition curve with a large enough effect; inconclusive = small, poorly fitted or top-dose-only effect, or effect the other way; inactive = flat fitted curve, though single readings scatter; tested in HEK293 cells; about a fifth of its hits are not listed in these tables; further: on the % scale 0 is the no-effect control and ±100 the full control effect; luciferase read-out
Cruzain Triton: inhibitors of Trypanosoma cruzi cruzain with detergent; P25779; purified cruzain, Z-FR-AMC fluorescence, 0.01% Triton; Potency, µM, for inactives: max response, negative = inhibition, usual class: inhibitors; actives 0.43% (n = 200,000); AID 1478;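 further: plate controls were neutral wells for no effect and buffer without enzyme for full effect; nearly all actives have a fitted effect of over 40% in size; top concentration of the series not given in the record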
Target sequence (P25779 123-467 limits assumed): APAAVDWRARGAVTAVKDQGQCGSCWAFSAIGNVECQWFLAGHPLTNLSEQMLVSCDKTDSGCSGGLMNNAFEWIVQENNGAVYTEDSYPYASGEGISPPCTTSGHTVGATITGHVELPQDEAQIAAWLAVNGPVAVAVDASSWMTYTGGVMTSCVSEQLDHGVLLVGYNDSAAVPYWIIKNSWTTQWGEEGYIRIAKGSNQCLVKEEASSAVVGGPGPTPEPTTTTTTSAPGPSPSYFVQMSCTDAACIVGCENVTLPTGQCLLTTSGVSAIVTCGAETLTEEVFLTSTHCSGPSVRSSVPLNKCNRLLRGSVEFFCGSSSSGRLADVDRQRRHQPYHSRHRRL
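Cysteine protease activity tested under reducing, mildly acidic conditions (100 mM sodium acetate pH 5.5, 5 mM DTT) plus 0.01% Triton X-100. Cruzain 1.5 nM; substrate Z-FR-AMC 2 uM; 15 min compound preincubation at room temperature.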
NS1 inh: influenza NS1 inhibition. S. cerevisiae slowed by influenza A NS1, growth recovery by OD600. Potency, µM (doses to about 46.1 µM), inactives show top-dose activity, positive = more growth. actives 0.4% (n = 270,000); active means well fitted rising curve with a large enough effect; inconclusive means small, poorly fitted or top-dose-only effect; inactive means no such curve, though single readings can be large or run the other way; further: nearly all actives have a fitted effect of over 50% in size
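Growth recovery, yeast-based: influenza A NS1 expressed in S. cerevisiae causes slow growth, and suppressors are detected by OD600. The parent strain without NS1 is used as positive control.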
StopGo reporter: FMDV 2A StopGo reporter, luciferase signal | human cells with a luciferase reporter of 2A StopGo recoding; control for the full effect not named in the record | Potency, µM (series often up to 57.9 µM), without a hit: at the highest dose signal change, negative = less light | actives 1.2% (n = 410,000); active = well fitted falling curve with a large enough effect; inconclusive = small, poorly fitted or top-dose-only effect; inactive = no such curve, though single readings can be large or run the other way; tested in HEK293T cells; further: on the % scale 0 is the no-effect control and ±100 the full control effect; nearly all actives have a fitted effect of over 45% in size; luciferase light after 4 h
Cruzain noTriton: inhibitors of Trypanosoma cruzi cruzain without detergent | actives 2.3% (n = 200,000) | AID 1476 | P25779 | purified cruzain, Z-FR-AMC fluorescence, no detergent | Potency, µM, inactives show max response, negative = inhibition, usual class: inhibitors;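 further: plate controls were enzyme without inhibitor for no effect and buffer without enzyme for full effect; nearly all actives have a fitted effect of over 40% in size; top concentration of the series not given in the record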
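Purified cruzain at 1.5 nM, pre-incubated 15 min with compound at room temperature in 100 mM sodium acetate pH 5.5, 5 mM DTT, 0.00005% Triton X-100. Reaction started with 2 uM Z-FR-AMC; AMC fluorescence increase over 60 s gives rate.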
Starred values were filed as active, the others as inactive; ? = inconclusive; / = not tested or not shown; & = joins results of further samples; [ ] = another dose, or the depositor's remark. Unless noted, the call rests on the fitted dose curve; in most records, active means well fitted curve in the direction sought with a large enough effect; inconclusive means small, poorly fitted or top-dose-only effect, or another doubt; inactive means no such curve, though single readings can be large; an effect the other way counts as inactive or inconclusive. Potency means the concentration at half of the fitted maximal effect.

Compound	RE007 growth inh	SARS PLP yeast	Lassa entry inh	MARV entry inh	Cruzain Triton	NS1 inh	StopGo reporter	Cruzain noTriton
Cc1ccc(NS(=O)(=O)c2ccc(-c3cnc(C4CC4)o3)cc2)cc1N(C)C	/	/	?	/	-12%	/	-29%	10%
O=C(NC1CCCCCC1)c1ccc(CS(=O)c2ccc(Br)cc2)o1 (stereo not given)	/	/	-22%[46.1 µM]	-1%[46.1 µM]	?	/	-21%	?
CN(CCc1ccccc1)Cc1ccccc1[N+](=O)[O-]	-21%	-1%	1%	1%	-4.2%	4%	-1%	7%
O=C(Cn1c2ccccc2c(=O)c2ccccc21)Nc1ccccc1F	9%	12%	27%	-9%	0.1%	8%	-6%	-6%
CC(O)CNCc1ccc(Cl)cc1Cl (stereo not given)	-9%	1%	12%[46.1 µM]	3%[46.1 µM]	/	3%	3%	/
COc1ccc(CNC(=O)C(=O)NCCC2CCCCN2S(=O)(=O)c2ccc(C)cc2)cc1 (stereo not given)	-1%	-6%	-22%	-25%	/	/	-2%	/
COC(=O)c1c(N)sc(C(=O)NCCc2ccccc2)c1C	12%	-11%	?	5µM*	/	-14%	6.3µM*	/
CCc1ccc(OCC(=O)N2CCN=C2c2ccccc2)cc1	-1%	0%	2%	?	1.1%	-4%	-8%	9%
N#Cc1ccc(C(=O)NCC2CCCCC2)cc1	11%	-4%	/	/	/	-7%	40%[activator]	/
C[C@H](NC(=O)C1CC(=O)N(c2ccc3c(c2)OCCO3)C1)C(=O)NCc1ccco1 (stereo not given in full)	7%	-1%	21%[46.1 µM]	0%[46.1 µM]	/	2%	-3%	/
CCOC(=O)n1c(=O)n(Cc2ccccc2C)c2ccccc21	21%	-5%	-22%	5%[46.1 µM]	/	/	-13%	/
O=C1c2ccccc2NC2(CCCCC2)N1c1ccc(O)cc1	7%	5%	-26%	-23%[46.1 µM]	-0.6%	3%	-2%	-6%
O=c1cc(O)nc(-c2ccc(Cl)cc2)s1	-5%	1%	10%[46.1 µM]	-2%[46.1 µM]	/	0%	-5%	/
COC(=O)c1cccc(NC(=O)c2cccnc2C(=O)O)c1C	-6%	0%	0%	?	/	3%	8%	/
COc1ccccc1OCCCn1cc(C(=O)c2ccco2)c2ccccc21	-18%	-13%	?	-8%	-4.9%	-14%	-12%	-5%
Cc1ccc(-n2c(C)cc(/C=C3/C(=N)N4C(c5ccccc5)=CSC4=NC3=O)c2C)cc1	2%	-26%	0%	?	1.2%	11%	-28%	6.3µM*
Cc1cccc(C)c1NC(=O)CNC(=O)c1cnccn1	15%	2%	-4%	?	/	/	0%	/
O=C(NCc1ccccc1)C1=C[C@@H](c2coc3ccccc3c2=O)C[C@@H](OCCCCO)O1	0%	-2%	/	/	/	-5%	-10%	/
CN1CCN(C(=O)c2ccccc2NC(=O)CCN2C(=O)c3ccccc3C2=O)CC1	4%	-4%	-4%	12%	0.8%	-5%	9%	-5%
O=C(c1ccccc1)c1ccc(OC(=O)N2CCCC2)cc1	?	-3%	-5%	0%	-2.4%	-11%	31%[activator]	-17%
N#Cc1ccc(C(=O)OCC(=O)N2CCN(C(=O)c3ccco3)CC2)cc1	-8%	-1%	-4%[46.1 µM]	7%[46.1 µM]	/	/	20%	/
CCOc1ccc(C(=O)NC(=S)Nc2ncccc2C)cc1[N+](=O)[O-]	33%	26%	10%	23%	-3.7%	?	-3%	-6%
COc1cc(NC(=O)CCCc2c[nH]c3ccccc23)cc(OC)c1	-3%	4%	/	/	-9.2%	-8%	-21%	9%
Cc1cccc(C)c1NC(=O)C1CSC2(C)CCC(=O)N12 (stereo not given)	10%	2%	-3%	-15%	/	/	-1%	/
COc1ccc(OC)c(CNC(=O)CCN2C(=O)COc3ccccc32)c1	-7%	4%	5%	-15%	1.2%	-26%	-3%	-2%
Cc1cccc(CSc2nc3ccncc3n2CC(=O)N(C)C2CCCCC2)c1	/	/	-1%[46.1 µM]	0%[46.1 µM]	-4.4%	/	-6%	28%
N#CC(C#N)=CC1=C2OC(c3ccccc3)=CC(c3ccccc3)=C2CCC1	-12%	-1%	-13%	-8%	1.9%	0%	/	5µM*
Cc1cc(=O)oc2c(C)c(OC(C)C(=O)N3CC[C@@]4(O)CCCC[C@H]4C3)ccc12 (stereo not given in full)	-7%	3%	/	/	/	-10%	-13%	/
COc1ccc(S(=O)(=O)NNC(=O)c2cccs2)cc1	-2%	0%	1%[46.1 µM]	?	/	1%	45%[activator]	/
CC(=O)NNc1nc(-c2ccc(C)cc2)cs1	155%	4%	1%	?	/	?	59%[activator]	/
Cc1ccc(SC[C@H](C)CN2CC[C@H](C)CCC2=O)cc1	20%	-8%	/	/	/	-64%	-3%	/
O=C(O)c1ccc(/C=N/NC(=O)c2ccc(F)cc2)cc1	-2%	0%	14%[46.1 µM]	5%[46.1 µM]	/	5%	-7%	/
O=C(c1cc(-c2ccccc2Cl)nc2ccc(Br)cc12)N1CCN(c2ccccn2)CC1	3%	/	?	?	/	/	?	/
COc1cccc(C(=O)c2c(C)c(CCC#N)n3ccccc23)c1	5%	-4%	-1%[46.1 µM]	-8%[46.1 µM]	/	-5%	13%	/
Cc1ccc(S(=O)(=O)CCC(=O)N2CCN(c3ccccc3F)CC2)cc1	19%	-4%	-14%[46.1 µM]	28%[46.1 µM]	/	-13%	12%	/
Cc1ccc(C)c(CN2CCC(n3nnc4cc(F)ccc43)CC2)c1	8%	2%	?	?	3.4%	1%	/	-6%
O=C(NC1CCS(=O)(=O)C1)c1ccc(N2CCCCC2)c([N+](=O)[O-])c1 (stereo not given)	-16%	27%	17%	10%	/	15%	-6%	/
CCCCN(CC)C(=O)c1ccc(-c2ccccc2)cc1	-6%	9%	-5%	-11%	-8.5%	-44%	-12%	-11%
Cc1ccc(NC(=O)C(c2ccc(Cl)cc2)N2CCCCC2)cc1 (stereo not given)	6%	-7%	0%	4%	2.4%	1%	-20%	4%
COc1ccc(-c2nc3ccccc3n3c(-c4ccc(OC)cc4)c4c(=O)n(C)c(=O)n(C)c4c23)cc1	/	/	12%[46.1 µM]	-13%[46.1 µM]	-0.5%	/	-23%	9%
N#Cc1ccccc1CSc1nnc(-c2ccccc2)o1	/	/	1%[46.1 µM]	?	-5.9%	/	39%[activator]	-20%
O=C(O)/C=C/C(=O)Nc1cc(F)ccc1F	-4%	-2%	/	/	/	2%	-19%	/
COc1ccc(NC(=O)CCN2CCN(S(=O)(=O)c3ccc(Br)cc3)CC2)cc1	-11%	-1%	/	/	/	-8%	1%	/
Cc1c(C(=O)OCC(=O)NC(=O)NC2CCCCC2)cccc1[N+](=O)[O-]	19%	-10%	-15%	-24%	/	/	0%	/
COc1cccc(NC(=O)Cc2nnc(SCC(=O)NC(C)c3ccccc3)n2C)c1 (stereo not given)	-6%	-1%	-3%	0%	0.2%	0%	4%	2%
COc1ccccc1NC(=O)Cn1c(=O)c(CNc2ccc(C)cc2)cc2cc3c(cc21)OCCO3	/	/	-15%[46.1 µM]	/	-3.9%	/	21%	?
CCOc1ccc(S(=O)(=O)N2CCOCC2)cc1NC(=O)CSCc1c(C)noc1C	-17%	0%	-1%	2%[46.1 µM]	/	/	0%	/
O=C(Nc1ncc2c(n1)-c1ccccc1OC2)c1ccccc1Cl	-7%	-15%	-8%	?	-14%	7%	-22%	2%
O=C(NCCc1c[nH]c2ccccc12)c1ccc([N+](=O)[O-])cc1	-14%	-1%	?	?	-6.7%	-4%	4%	0%
Cn1c(=O)c2cc3c(nc2n(C)c1=O)CC(c1ccccc1)CC3=O (stereo not given)	9%	1%	/	/	/	7%	-22%	/
Cc1cc(NC(=O)CSc2nc3c(c(=O)n2Cc2ccccc2)SC(C)C3)no1 (stereo not given)	16%	1%	/	/	/	-6%&4%	39%[activator]	/
CC(NC(=O)/C(C#N)=C1\N=C(NC(=O)c2cccs2)c2ccccc21)c1ccccc1 (stereo not given)	-14%	?	-1%	?	-0.3%	-5%	-9%	16µM*
CC1(c2ccccc2)NC(=O)N(CC(=O)NCc2cccc(Cl)c2)C1=O (stereo not given)	45%	-1%	9%	?	/	-3%	-1%	/
Cc1ccc(NC(=O)Cn2cc3c(n2)CCCC3)cc1Cl	/	/	-6%[46.1 µM]	?	-4.9%	/	4%	-5%
O=C(Cc1ccccc1)NCCSCc1ccc(Cl)cc1	-15%	-3%	?	-4%	-1.5%	-76%	-3%	-9%
Cc1ccc(C(=O)/C=C/c2cn(CC(O)CN3CCc4ccccc43)c3ccccc23)cc1 (stereo not given)	/	/	?	?	-4.2%	/	-5%	10µM*
CCN(CC)CCCN(C(=O)c1ccco1)c1nc(-c2ccc(Cl)cc2)cs1	-13%	0%	?	?	/	-30%	-2%	/
Cc1cc(C(=O)COC(=O)c2cccnc2Cl)c(C)n1-c1c(C)n(C)n(-c2ccccc2)c1=O	7%	19%	-5%	-6%	/	/	-3%	/
CC(CCc1ccccc1)NC(=O)Cn1c(=O)nc(-c2ccccc2F)c2cc(Cl)ccc21 (stereo not given)	/	/	?	/	-5.7%	/	-2%	4%
C=C1C(=O)OC2C=C(CO)CCC=C(CO)CC(OC(=O)C(C)C)C12 (stereo not given)	16%	/	?	?	/	/	40µM*	/
COc1ccc(NC(=O)CN2C(=O)C(C)N=C(c3ccccc3)c3ccccc32)cc1OC (stereo not given)	/	/	-26%[46.1 µM]	-1%[46.1 µM]	-0.7%	/	-22%	?

The order is random; 4.6% or so of the library scored in one or more.
